Vaccinia mCherry: vaccinia inhibition (mCherry reporter). Vaccinia virus mCherry reporter infection, fluorescence; about a quarter of the inactives have no number. Potency, µM (titrated, usually from 36.5 µM), for inactives: at the highest dose activity change, negative = inhibition, hits mostly inhibitors. hit rate 0.63% among 310,000; active = well fitted inhibition curve with a large enough effect; inconclusive = small, poorly fitted or top-dose-only effect; inactive = no such curve, though single readings can be large or run the other way; tested in A549 cells; further: nearly all actives have a fitted effect of over 35% in size; inactives centre near -10
Vaccinia Venus: inhibitors of vaccinia virus (Venus reporter) | Vaccinia virus Venus reporter expression, fluorescence | Potency, µM (doses to about 36.5 µM), without a hit: at the top dose activity change, negative = inhibition, actives largely listed as inhibitors | hit rate 0.46% among 330,000 | AID 720580; active means well fitted inhibition curve with a large enough effect; inconclusive means small, poorly fitted or top-dose-only effect; inactive means no such curve, though single readings can be large or run the other way; tested in A549 cells; further: nearly all actives have a fitted effect of over 30% in size; inactives centre near -10
* = called active by the depositor; i = inactive; ? = inconclusive; / = no result given; & = joins results of further samples; [ ] = dose if it differs, or a comment. On the % scale 0 is the no-effect control and ±100 the full control effect; potency means the concentration at half of the fitted maximal effect.

Sequence of screens – Vaccinia mCherry | Vaccinia Venus
- Cc1cc(Cl)ccc1NC(=O)Cn1nnc2sc(-c3ccccc3)cc2c1=O
→ 12% | 1%
- O=C1N[C@@H](c2ccccc2)COC(=O)[C@H](Cc2ccc(F)cc2)C/C=C\C[C@@H]1CC(=O)N(CCO)Cc1ccccc1
→ -18% | ?
- COc1ccccc1NC(=O)CSC1=Nc2ccccc2C2=NC(Cc3ccccc3)C(=O)N12 (stereo not drawn)
→ -24% | -3%
- CC(C)Oc1ccc(CNC(=O)CCCn2c(=O)c3cccn3c3ccccc32)cc1
→ -25% | -20%
- Cc1ccccc1-c1nc(CS(=O)(=O)CC(=O)NC(C)c2ccccc2)c(C)o1 (stereo not drawn)
→ -19%&-19% | -12%&-10%
- COc1ccc(C2Nc3ccccc3C(=O)N2c2ccc(Cl)cc2)cc1COc1ccc(NC(C)=O)cc1 (stereo not drawn)
→ -3% | -8%
- CC1CCN(C(=O)COC(=O)c2n[nH]c3ccccc23)CC1
→ / | -11%
- O=[N+]([O-])c1ccccc1S(=O)c1ccccc1[N+](=O)[O-]
→ i | -1%
- Cc1ccc(N2CC(C(=O)Nc3nnc(SCCC4OCCO4)s3)CC2=O)cc1C (stereo not drawn)
→ i | -12%
- COc1ccc(-c2c(C)nn3c(N4CCCCCC4)cc(C)nc23)cc1OC
→ ? | -28%

Three entries from above, with each value named.
smiles: COc1ccccc1NC(=O)CSC1=Nc2ccccc2C2=NC(Cc3ccccc3)C(=O)N12 (stereo not drawn)
  Vaccinia mCherry = -24%; Vaccinia Venus = -3%
smiles: CC(C)Oc1ccc(CNC(=O)CCCn2c(=O)c3cccn3c3ccccc32)cc1
  Vaccinia mCherry = -25%; Vaccinia Venus = -20%
smiles: Cc1cc(Cl)ccc1NC(=O)Cn1nnc2sc(-c3ccccc3)cc2c1=O
  Vaccinia mCherry = 12%; Vaccinia Venus = 1%

The list goes on.
Sequence of screens – Vaccinia mCherry | Vaccinia Venus
- COCCN=c1scc(-c2ccc3c(c2)NC(=O)CO3)n1/N=C(\C)c1ccc(O)cc1
→ -12% | 9%
- OC(c1ccc(Cl)cc1)c1ncc(-c2ccccc2F)[nH]1 (stereo not drawn)
→ -10% | -11%
- CCOC(=O)CCSc1nc(C(C)(C)C)cc(C(F)(F)F)c1C#N
→ -7% | -7%
- Cc1cn(-c2cc(NC(=O)c3ccc(C)c(NC(=O)c4cccc(-c5cn[nH]c(=O)c5)c4)c3)cc(C(F)(F)F)c2)cn1
→ i | -12%
- O=C(Nc1ccccc1)c1cc(C2CCCN(C(=O)C3CC3)C2)on1 (stereo not drawn)
→ -4% | 0%
- Cc1ccc(-c2ccc(CN3C(C(C)C)C(=O)N(Cc4cn(CCC5OCCO5)nn4)CCS3(=O)=O)cc2)cc1 (stereo not drawn)
→ i | -28%
- Cc1ccc(C(C(=O)NC(C)(C)C)N(CC2CCCO2)C(=O)CCC(=O)Nc2ccccn2)cc1 (stereo not drawn)
→ -11% | -2%
- O=C(/C=C/c1c(Cl)nc2ccccn12)N1CCN(c2ccccc2F)CC1
→ -12% | -17%
- O=C(NC(=O)c1c(F)cccc1F)Nc1cc(Cl)c(OC(F)(F)C(F)C(F)(F)F)cc1Cl (stereo not drawn)
→ i | -25%
- Cc1ccc2c(C(=O)CN3CCN(C4CCCCC4)CC3)c(C)[nH]c2c1
→ / | ?

Another view of 3 compounds above.
Cc1ccc(-c2ccc(CN3C(C(C)C)C(=O)N(Cc4cn(CCC5OCCO5)nn4)CCS3(=O)=O)cc2)cc1 (stereo not drawn)
  Vaccinia mCherry: i
  Vaccinia Venus: -28%
OC(c1ccc(Cl)cc1)c1ncc(-c2ccccc2F)[nH]1 (stereo not drawn)
  Vaccinia mCherry: -10%
  Vaccinia Venus: -11%
Cc1cn(-c2cc(NC(=O)c3ccc(C)c(NC(=O)c4cccc(-c5cn[nH]c(=O)c5)c4)c3)cc(C(F)(F)F)c2)cn1
  Vaccinia mCherry: i
  Vaccinia Venus: -12%

(next part)
Sequence of screens – Vaccinia mCherry | Vaccinia Venus
- CCc1ccc(N2C(=O)CC(N3CCC(C(=O)OC)CC3)C2=O)cc1 (stereo not drawn)
→ -13% | -3%
- CCCCCOc1ccc(/C=C/C(=O)Nc2sc3c(c2C(=O)OCC)CCC3)cc1OC
→ 7% | 5%
- COc1ccc(Cc2nnc(NC(=O)CSc3ccccc3)s2)cc1
→ -7% | -23%
- CN1CCN(Cc2cc3c(cc2[N+](=O)[O-])OCO3)CC1
→ i | -2%
- O=C(CN=C1NC(=O)C(c2ccccc2)(c2ccccc2)N1)NCc1ccc(F)cc1
→ -11% | -14%
- Cc1c(C(=O)N/N=C/c2c(O)ccc3ccccc23)nnn1-c1nonc1N
→ -24% | 13%
- O=C(OCc1ccc(Br)cc1)c1cccnc1Cl
→ 21% | 10%
- CCOc1ccccc1N1CCN(C(=O)C2c3ccccc3Oc3ccccc32)CC1
→ / | ?
- CNS(=O)(=O)c1cccc(C(=O)OCc2cc(=O)n3cc(Br)ccc3n2)c1
→ -9% | -9%
- Cc1cnc(C(=O)OCC(=O)Nc2ccc(C)c(S(=O)(=O)N3CCOCC3)c2)cn1
→ i | -7%
- COc1ccc(OCc2cc(=O)[nH]c3ccccc23)cc1
→ -7% | -23%
- CCOC(=O)C(C)Sc1nc(=O)n2ccccc2n1 (stereo not drawn)
→ i | -13%
- COc1ccccc1NC(=O)c1cc2ccccc2nc1C
→ -8% | 2%
- COC(=O)CSc1nc2sc3c(c2c(=O)n1-c1ccc(C)cc1)CC(C(C)C)OC3 (stereo not drawn)
→ -2% | 5%
- Cc1cc(C)cc(NC(=O)C(c2ccccc2)N2CCN(CC(=O)N3CCCC3)CC2)c1 (stereo not drawn)
→ -14% | -15%
- O=C(NC1CC1)[C@@H]1C[C@@H](Sc2nc3ccccc3[nH]2)CN1CC1CCCCC1
→ -24% | -15%
- COCCn1c(SCC(=O)Nc2ccc(F)cc2F)nc2c([nH]c3ccccc32)c1=O
→ -7% | -6%
- Cc1ccc(N(CC(=O)N2CCN(c3cc(Cl)ccc3C)CC2)S(=O)(=O)c2c(C)noc2C)cc1
→ -21% | -8%
- C1CCC(n2nnnc2CN2CCN(C3CCCC3)CC2)CC1
→ / | -30%
- O=C(O)c1cc2nc(C3CC3)cc(C(F)(F)F)n2n1
→ -12% | -14%
- CCc1ccccc1NC(=O)C1CCCN(S(=O)(=O)c2c(C)noc2C)C1 (stereo not drawn)
→ -13% | -13%
- CC1CN(S(=O)(=O)c2cccc(C(=O)NCCC3=CCCCC3)c2)CC(C)O1 (stereo not drawn)
→ -24% | -21%
- CCCCCC(=O)N/N=C(\C)c1ccc(NC(=O)c2ccco2)cc1
→ i | -22%
- CCCCOC(=O)c1ccc(NC(=O)C(=O)NCCN(CC)CC)cc1
→ ? | -8%
- CC(C)OCCCNC(=O)C1CCC(=O)N1C(C)C (stereo not drawn)
→ -7% | -9%
- CCN(CC)S(=O)(=O)c1ccc(N2CCN(C)CC2)c(NC(=O)CSCC(=O)Nc2cccc(C)c2)c1
→ -8% | -11%
- COc1ccc(Cl)cc1NC(=O)c1c(NCc2cccnc2)sc2c1CCC(C)C2 (stereo not drawn)
→ -6%[7.34 µM] | -6%[7.34 µM]
- CC(=O)Nc1cccc(NC(=O)C2(c3cccs3)CCOCC2)c1
→ 1% | 9%
- CS(=O)(=O)N1CCC(C(=O)N2CCN(c3ccccc3F)CC2)CC1
→ -4% | -6%
- Cc1cc(=O)oc2c3c(cc(OCC(=O)NCC4CCC(C(=O)O)CC4)c12)OC(C)(C)CC3 (stereo not drawn)
→ -1% | -3%
- COC(=O)c1cccc(N2C(=O)c3ccccc3S2(=O)=O)c1
→ -9% | -8%
- Cc1ccc[n+](-c2[nH]c(=O)sc2/C=N/NC(=O)c2ccccc2[O-])c1
→ -12% | 3%
- CCCCNC(=O)N1CCN(c2ccccc2OCC)CC1
→ i | -11%
- Cc1[nH]c2ccccc2c1C(=O)C(=O)N(C)c1ccccc1
→ -12% | -12%
- COCCN(C(=O)COC(=O)C(c1ccccc1)c1ccccc1)c1c(N)n(Cc2ccccc2)c(=O)[nH]c1=O
→ i | -9%
- CCOC(=O)C1=C(C)N=C2SCCC(=O)N2[C@@H]1/C=C/c1ccccc1
→ -19% | -19%
- CCn1c(=O)n(CC)c2cc(S(N)(=O)=O)ccc21
→ i | 4%
- CCCc1nnc(SCC(=O)Nc2ccc(C(=O)OCC)cc2)o1
→ -12% | 7%
- COc1cc(C(=O)N/N=C/c2ccccn2)cc(OC)c1OC
→ -14% | -24%
- Cn1c(Oc2ccccc2NCc2cccc(Br)c2)cc(=O)n(C)c1=O
→ / | -29%

Next part:
structure	Vaccinia mCherry	Vaccinia Venus
Cc1ccc(S(=O)(=O)C(c2ccccc2)c2c(C)noc2C)cc1 (stereo not drawn)	-10%	-15%
O=C(N/N=C\c1ccc(Br)cc1)c1ccc(Cn2cccn2)o1	i	-7%
Cc1cc2c(=O)n(C)c(SCC(=O)Nc3ccccc3)nc2s1	4%	-1%
COc1ccc(NC(=O)/C(=C\c2cc(OC)c(OC)cc2[N+](=O)[O-])NC(=O)c2ccccc2)cc1	/	-13%
CCOC(=O)c1cnc(-n2nc(C)cc2C)nc1NNc1cc(C)nc(-c2ccccc2)n1	-1%	-16%
COCCn1c(C)cc(C(=O)COC(=O)/C=C/c2c(C)nn(C3CCS(=O)(=O)C3)c2Cl)c1C (stereo not drawn)	-4%	-24%
CSc1ccccc1NC(=O)CN(c1ccccc1)S(=O)(=O)N(C)C	/	-14%
COc1ccccc1/C=C/C(=O)OCC(=O)Nc1ccc(Cl)cn1	-12%	-5%
CCN(C[C@H]1N[C@@](CC)(C(=O)OC)[C@H]2C(=O)N(C)C(=O)[C@@H]12)C(=O)Nc1ccc(OC)cc1	i	0%
COc1ccc(-c2noc(CCC(=O)Nc3cccc(C)c3C)n2)cc1OC	-12%	-3%
CCC(C)Sc1ccc(-c2nc3ccc(Cl)cn3c2NCc2ccccc2)cc1 (stereo not drawn)	i	-8%
CC(C)(CNC(=O)c1cccc(S(=O)(=O)NCc2ccccc2)c1)N1CCOCC1	i	-17%
CC1(C(=O)Nc2ccccc2Cc2ccccc2)CCN1Cc1ccccc1Cl (stereo not drawn)	8%	3%
Cc1ccc(NC(=O)CCSc2nc(-c3ccco3)cc(C(F)(F)F)n2)cc1F	-11%	-6%
C[C@H](O)C(=O)C1=Nc2c(nc(N)[nH]c2=O)NC1	-8%	-2%
Cc1cccc(Cl)c1NC(=S)NN	i[7.34 µM]	-24%[7.34 µM]
OCc1ccc(-c2cncc3nccn23)cc1	-3%	7%
S=C(NC1CC1)N1CCN(c2ccc(Cl)cc2)CC1	i	0%
Cc1ccc(-n2nnnc2SCC(=O)N2CCN(C(=O)c3ccco3)CC2)c(C)c1	/	-15%
Cc1[nH]c2ccccc2c1NC(=O)CN1CCN(c2cccc(C(F)(F)F)c2)CC1	?	?
O=C(Nc1cc2c(cc1C(=O)c1cccc(Br)c1)OCCO2)c1ccccc1F	-25%	-20%
Cn1cc(Br)c(C(=O)NNC(=O)c2cccc(Br)c2)n1	-12%	9%
O=C(COC(=O)CC1c2ccccc2CCN1S(=O)(=O)c1ccccc1)Nc1ccccc1 (stereo not drawn)	-1%	-19%
COc1ccc(-c2cn3nc(N4CCCC(C(=O)Nc5ccc(Cl)cc5C)C4)sc3n2)cc1 (stereo not drawn)	-8%	-9%
Cc1ccc(NC(=O)[C@H](Cc2ccccc2)N2Cc3ccccc3C2=O)cc1	0%	2%
COC(=O)c1ccccc1NC(=O)CN(c1c(C)cccc1C)S(C)(=O)=O	-20%	-6%
O=C(NCCc1ccccc1)C(=O)NCC1CCCN1S(=O)(=O)c1ccccc1 (stereo not drawn)	?	?
CC(C)(C)n1nnnc1C(c1cccnc1)N1CCN(c2ccccc2F)CC1 (stereo not drawn)	/	-2%
COc1ccc(-n2nc(C(=O)NCC(=O)N3CCC(C(N)=O)CC3)c3ccccc3c2=O)cc1OC	-3%	-6%
COc1ccc(N(CC(=O)Nc2ccc(Cl)cc2C)S(=O)(=O)c2ccccc2)c(OC)c1	-15%	-9%
CC(C(=O)NCc1ccc(F)cc1)c1ccc([N+](=O)[O-])cc1 (stereo not drawn)	-5%	-9%
CC(=O)c1cccc(NC(=O)c2ccccc2OCc2ccc(F)cc2)c1	-16%	-9%
COc1ccc(NC(=S)NC(C)c2ccncc2)cc1OC (stereo not drawn)	i	-18%
CC(C(=O)NCc1ccco1)n1cc(C(=O)c2ccco2)c2ccccc21 (stereo not drawn)	/	-14%
O=C(Nc1ccc(Cl)cc1F)C1CCCN(C2=NS(=O)(=O)c3ccccc32)C1 (stereo not drawn)	-3%	-16%
CC(=O)OCc1c(-c2ccccc2)c2cc([N+](=O)[O-])ccc2n1C	-14%	-20%
CC(=O)NC12CC3CC(C1)CC(C(=O)Nc1cccc(S(=O)(=O)N4CCCCCC4)c1)(C3)C2	-28%	-14%
COc1ccc(CN2CCN(Cc3cccc(F)c3)CC2)cc1OC	-11%	-1%
Cc1c(-c2nc(-c3ccccc3)no2)nnn1-c1cccc(C(F)(F)F)c1	-12%[7.34 µM]	-10%[7.34 µM]
COc1ccc(CC(=O)Nc2ccc(-c3nnc(-c4ccccc4)o3)cc2)cc1	/	-13%
O=C(NC1(C(F)(F)F)NC(=O)N(CCc2ccccc2)C1=O)c1ccccc1F (stereo not drawn)	-13%	-4%
COc1cc(Br)cc(/C=N/NC(=O)Cc2ccc(C(F)(F)F)cc2[N+](=O)[O-])c1O	20µM*	13µM*
CNC(=O)CSc1n[nH]c(-c2cc(Cl)ccc2OC)n1	2%	8%
